RecA intein inh = Mtb RecA intein splicing inhibitors, primary screen, biochemical, fluorescence, HTS | Protein RecA (Mycobacterium tuberculosis (strain ATCC 25618 / H37Rv)), P9WHJ3 | cell-free RecA intein splicing | inhibition, %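 (about 9 µM by stock and volumes)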 | 290,000 tested, 0.75% active | AID 2221, 2009; in the data active = inhibition above about 30%; inconclusive = no clear call, values can overlap the other calls;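 also: 0% = vehicle wells and 100% = reference inhibitor control wells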
Target sequence (P9WHJ3 whole entry, looked up): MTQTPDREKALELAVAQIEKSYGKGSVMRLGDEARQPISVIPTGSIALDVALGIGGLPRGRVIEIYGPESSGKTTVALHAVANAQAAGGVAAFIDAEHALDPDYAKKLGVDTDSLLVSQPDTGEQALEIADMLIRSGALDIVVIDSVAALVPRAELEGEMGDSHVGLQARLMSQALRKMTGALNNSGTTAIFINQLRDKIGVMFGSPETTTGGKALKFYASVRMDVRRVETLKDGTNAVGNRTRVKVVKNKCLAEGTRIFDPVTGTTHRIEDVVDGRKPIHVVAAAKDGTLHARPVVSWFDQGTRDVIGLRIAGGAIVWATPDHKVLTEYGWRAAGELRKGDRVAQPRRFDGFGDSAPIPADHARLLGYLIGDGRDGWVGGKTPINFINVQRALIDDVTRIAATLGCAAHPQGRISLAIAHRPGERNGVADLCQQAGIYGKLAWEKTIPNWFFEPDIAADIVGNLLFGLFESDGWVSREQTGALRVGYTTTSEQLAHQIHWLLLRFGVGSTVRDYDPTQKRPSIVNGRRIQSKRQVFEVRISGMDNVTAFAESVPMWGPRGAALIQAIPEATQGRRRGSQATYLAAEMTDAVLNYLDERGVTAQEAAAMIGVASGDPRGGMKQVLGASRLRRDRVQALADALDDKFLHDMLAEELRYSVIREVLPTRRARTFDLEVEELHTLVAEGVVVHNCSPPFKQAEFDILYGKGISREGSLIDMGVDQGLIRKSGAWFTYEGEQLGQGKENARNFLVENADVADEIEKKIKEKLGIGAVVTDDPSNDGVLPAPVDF
YopH inh = YopH tyrosine phosphatase inhibitors, primary screen, biochemical, fluorescence Ex485/Em525 | YopH tyrosine phosphatase [Yersinia enterocolitica] | inhibition, %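 (about 10 µM by stock and volumes)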 | 140,000 tested, 0.16% active;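 active = inhibition of 50% or more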;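 also: controls were vehicle for no effect and minimum signal wells for full effect; inactives centre near -20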
Mtb growth = M. tuberculosis H37Rv growth inhibitors, H37Rv strain (AID 1626); M. tuberculosis H37Rv growth inhibition; higher % means a stronger effect; one-dose inhibition, % at 10 µM; IC50 in µM for titrated hits; 220,000 tested, 0.95% active;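 active = confirmed in a dose series; inconclusive = inhibition above 80% but not taken into the dose series; inactive = below 80% or under 30% at every dose of the series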;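 also: bacteria incubated seven days before Alamar blue readout; 0% = bacteria only wells and 100% = bacteria with antibiotic wells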
Arbovirus inh = antivirals against arbovirus infection, primary screen, cell-based, full library, 10K replicate subset. arbovirus infection cell-based antiviral screen. inhibition, % at 10 µM. 200,000 tested, 0.37% active;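 active = inhibition from about 30%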;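 also: bluetongue infection of BSR cells; cell survival read as ATP light after 72 h; 0% = infected wells without compound and 100% = uninfected wells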
Mtb betalactam = beta-lactam sensitization of Mtb H37Rv, H37Rv; M. tuberculosis H37Rv growth with meropenem, percent inhibition; hits of this screen are not shown here; AID 434955, 2010; inhibition, % at 25 µM; 330,000 tested, 0.27% active;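 active = about 74% or more and at least 40 points above the plate without the antibiotic, then above 30% in a dose series; inconclusive = first-round hits that could not be retested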;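 also: growth measured after seven days incubation then overnight dye step; 0% = bacteria only wells and 100% = bacteria with antibiotic; twin plates without the antibiotic show which effects depend on it; some results filed as inactive read as strong as hits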
Arbovirus inh repeat = recorded beside Arbovirus inh, whose call it bears; inhibition, %; measured here: 10K subset replicate screen; many hits read low in the repeat;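 first of two repeat runs on a subset; 0% = infected and 100% = uninfected wells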
* hit, by the source's call. An excerpt, so the mix of outcomes need not match the whole.

How did CCC(=O)NC(=S)NNC(=O)c1ccc(OC)cc1 do in these assays?
YopH inh: -26; Mtb growth: 30%; Arbovirus inh: -20; Mtb betalactam: 4

Results for CC(=O)Nc1cccc(C(=O)Nc2cccnc2)c1 ?
RecA intein inh: -0.7; Mtb growth: 0%; Arbovirus inh: 2; Mtb betalactam: -6

Results for Cn1cccc1C(=O)OCC(=O)Nc1cc(C(C)(C)C)nn1-c1ccccc1 ?
RecA intein inh: 3.5; YopH inh: -24; Mtb growth: -7%; Arbovirus inh: 3; Mtb betalactam: 7

How did CN1CCC(=C2c3ccccc3C(O)c3ccccc32)CC1 (stereo not given) do in these assays?
RecA intein inh: 0.9; Mtb growth: 6%; Mtb betalactam: -1

What do the screens show for `CC1CC(C)CN(CC(O)COCCOc2ccc(Br)cc2)C1` (stereo not given)?
RecA intein inh: 0.3; YopH inh: 4; Mtb growth: 1%; Arbovirus inh: -28; Mtb betalactam: 1

How did Cc1nnc(SCC(=O)c2ccc(Cl)cc2)n(N)c1=O do in these assays?
Mtb growth: 0%; Arbovirus inh: -6; Mtb betalactam: -9

How did COC(=O)c1ccc(NC(=O)c2sc3nc(-c4ccccc4)cn3c2C)cc1 do in these assays?
RecA intein inh: 5.0; YopH inh: -33; Arbovirus inh: -11; Mtb betalactam: -1

Results for Cc1c([C@H]2[C@@H](CC#N)C2(C)C)c2ccccc2n1C ?
RecA intein inh: 15; YopH inh: -25; Mtb growth: -14%; Arbovirus inh: 4; Mtb betalactam: 34

What do the screens show for `CCOC(=O)CSc1nc2ccc(C)cc2n2cnnc12`?
RecA intein inh: 1.3; Mtb betalactam: 1

Results for O=C(c1ccccc1)N1CCC(c2nc(-c3ccc(S(=O)(=O)NCC4CCCO4)cc3)no2)CC1 (stereo not given) ?
RecA intein inh: 2.2; YopH inh: -5; Mtb growth: 5%; Arbovirus inh: 10; Mtb betalactam: -10

Reprinted at random: 6 records from the list.
Results for Cc1c([C@H]2[C@@H](CC#N)C2(C)C)c2ccccc2n1C ?
RecA intein inh: 15; YopH inh: -25; Mtb growth: -14%; Arbovirus inh: 4; Mtb betalactam: 34

Results for CC(=O)Nc1cccc(C(=O)Nc2cccnc2)c1 ?
RecA intein inh: -0.7; Mtb growth: 0%; Arbovirus inh: 2; Mtb betalactam: -6

How did CCC(=O)NC(=S)NNC(=O)c1ccc(OC)cc1 do in these assays?
YopH inh: -26; Mtb growth: 30%; Arbovirus inh: -20; Mtb betalactam: 4

Results for Cn1cccc1C(=O)OCC(=O)Nc1cc(C(C)(C)C)nn1-c1ccccc1 ?
RecA intein inh: 3.5; YopH inh: -24; Mtb growth: -7%; Arbovirus inh: 3; Mtb betalactam: 7

How did CN1CCC(=C2c3ccccc3C(O)c3ccccc32)CC1 (stereo not given) do in these assays?
RecA intein inh: 0.9; Mtb growth: 6%; Mtb betalactam: -1

What do the screens show for `CCOC(=O)CSc1nc2ccc(C)cc2n2cnnc12`?
RecA intein inh: 1.3; Mtb betalactam: 1

Next part
How did Clc1ccc(CNc2ccc(N3CCN(Cc4ccccc4)CC3)cc2)cc1 do in these assays?
RecA intein inh: -2.8; Mtb betalactam: 22

What do the screens show for `Cc1nn(Cc2ccc(F)cc2)c(C)c1NC(=O)c1noc2c1CCCCC2`?
RecA intein inh: -2.2; YopH inh: -8; Mtb growth: 9%; Arbovirus inh: 9; Mtb betalactam: -6

Results for CC(=O)NC1=NC(=O)/C(=C/N2CCCCC2)S1 ?
RecA intein inh: -0.2; YopH inh: -27; Mtb growth: 0%; Arbovirus inh: 4; Mtb betalactam: 6

What do the screens show for `Cc1c(OCC(=O)NCC2CCC(C(=O)NCCCO)CC2)ccc2c(-c3ccccc3)cc(=O)oc12` (stereo not given)?
RecA intein inh: 6.9; Mtb betalactam: -2

What do the screens show for `C[N+]1(CC(O)COCC2COc3ccccc3O2)CCOCC1` (stereo not given)?
RecA intein inh: 2.7; Mtb growth: 1%; Arbovirus inh: 6; Mtb betalactam: -1

What do the screens show for `CC1CCCN(C(=O)Cn2c(-c3nonc3N)nc3ccccc32)C1` (stereo not given)?
RecA intein inh: 3.6; YopH inh: -38; Mtb growth: -5%; Arbovirus inh: -6; Mtb betalactam: 7

How did CS(=O)(=O)NCCSCc1c(Cl)cccc1Cl do in these assays?
RecA intein inh: -4.4; YopH inh: -27; Mtb growth: -12%; Arbovirus inh: 2; Mtb betalactam: -3

Results for CCOc1cc(NC(=S)NCC2CCCO2)c(OCC)cc1NC(=O)CC (stereo not given) ?
RecA intein inh: 1.2; Mtb growth: 4%; Arbovirus inh: -2; Mtb betalactam: 9

Results for CCCn1c(=NC(=O)c2c(-c3c(F)cccc3Cl)noc2C)c(C(=O)OCC)cc2c(=O)n3ccccc3nc21 ?
RecA intein inh: -2.6; YopH inh: -6; Mtb growth: -4%; Arbovirus inh: -26; Mtb betalactam: -4

What do the screens show for `CS(=O)(=O)c1cc([N+](=O)[O-])c(Sc2nc3ccccc3[nH]2)c([N+](=O)[O-])c1`?
RecA intein inh: 18; YopH inh: -27; Mtb growth: -2%; Arbovirus inh: -2

Results for c1ccc2cc(Sc3ncnc4c3oc3ccccc34)ccc2c1 ?
RecA intein inh: 3.1; YopH inh: -9; Mtb growth: -5%; Arbovirus inh: -4; Mtb betalactam: 8

How did COc1ccccc1-n1ccnc1SCC(=O)NCC1CCCO1 (stereo not given) do in these assays?
RecA intein inh: 2.2; Mtb betalactam: 4

What do the screens show for `CC[C@H]1OC(=O)[C@H](C)[C@@H](O[C@H]2C[C@@](C)(OC)[C@@H](O)[C@H](C)O2)[C@H](C)[C@@H](O[C@@H]2O[C@H](C)C[C@H](N(C)C)[C@H]2O)[C@](C)(O)C[C@@H](C)C(=NOCOCCOC)[C@H](C)[C@@H](O)[C@]1(C)O`?
RecA intein inh: 1.1; Mtb betalactam: 75

Results for CCCCSc1c(C)c2cc3c(cc2[nH]c1=O)OCO3 ?
RecA intein inh: 0.4; YopH inh: -1; Mtb growth: 4%; Arbovirus inh: 13; Mtb betalactam: 7

How did O=C(CCn1cnc2ccccc2c1=O)Nc1nc(-c2ccc(Br)cc2)cs1 do in these assays?
RecA intein inh: -0.8; YopH inh: -18; Mtb growth: -1%; Arbovirus inh: -18; Mtb betalactam: 8

What do the screens show for `Cc1cccc(C(=O)NCC(=O)OCC(=O)NC2CCCCCCC2)c1`?
RecA intein inh: -0.2; Mtb betalactam: -9

What do the screens show for `Cc1nc2ccccc2c(=O)n1NC(=O)c1ccc(F)cc1Cl`?
RecA intein inh: 0.4; YopH inh: -2; Mtb growth: -12%; Arbovirus inh: 0; Mtb betalactam: -2

What do the screens show for `CCOc1ccc(/C=C2\CCc3ccccc3C2=O)cc1`?
RecA intein inh: 4.0; Mtb growth: -3%; Mtb betalactam: 1

Results for CCc1ccc(NC(=O)CSc2nncn2-c2cccnc2)cc1 ?
RecA intein inh: 1.8; Mtb betalactam: -4

What do the screens show for `CC(C)c1ccc(CNc2nc3nc4c(c(=O)n3[nH]2)CCC4)cc1`?
RecA intein inh: 2.1; Mtb growth: 0.46µM*; Arbovirus inh: 9; Mtb betalactam: 98

What do the screens show for `COc1ccccc1CC(NC(C)=O)C(=O)NC1CCN(C(=O)Nc2ccccc2F)CC1` (stereo not given)?
RecA intein inh: -0.4; Mtb betalactam: 3

Results for CCOc1ccc2nc(NC(=S)N(C)C)sc2c1 ?
RecA intein inh: -1.5; YopH inh: -8; Mtb growth: inconclusive; Arbovirus inh: -23; Mtb betalactam: 91

Results for COC(=O)c1cc2occc2n1Cc1nc(-c2ccccc2F)oc1C ?
RecA intein inh: -2.7; Mtb growth: -14%; Mtb betalactam: 1

Results for CC(=O)Nc1cccc(NC(=O)Nc2cccc(F)c2)c1 ?
RecA intein inh: 2.8; Mtb growth: 1%; Arbovirus inh: -2; Mtb betalactam: -2

What do the screens show for `COC(=O)C1CCN(C(=O)CCCOc2ccccc2)CC1`?
RecA intein inh: 1.5; YopH inh: -4; Mtb growth: -9%; Arbovirus inh: 16; Mtb betalactam: 13

Results for Cc1cccc(Oc2c([N+](=O)[O-])c(=O)n(C)c3ccccc23)c1 ?
RecA intein inh: 6.1; Mtb growth: -6%; Arbovirus inh: 1; Mtb betalactam: -2

How did O=C(/C=C/c1ccc2c(c1)OCO2)NCCSCc1ccc(Cl)cc1 do in these assays?
RecA intein inh: -1.2; YopH inh: -14; Mtb growth: 1%; Arbovirus inh: -28; Mtb betalactam: 16

What do the screens show for `CN(C)c1ccc(C(=O)c2ccccc2)cc1`?
RecA intein inh: 4.5; YopH inh: -10; Mtb growth: 1%; Arbovirus inh: 2; Mtb betalactam: -2

Results for CCN1CCN(S(=O)(=O)c2cccc(S(=O)(=O)N3CCOCC3)c2)CC1 ?
RecA intein inh: -2.7; Mtb growth: -4%; Arbovirus inh: 4; Mtb betalactam: -7

How did COCCN1C(=O)C(=O)/C(=C(/O)c2ccc(S(=O)(=O)N3CCOCC3)cc2)C1c1ccc(O)c(OC)c1 (stereo not given) do in these assays?
RecA intein inh: -7.7; Mtb betalactam: 1

What do the screens show for `COc1ccc(/C(N)=N/OC(=O)CSc2ccc(C)cc2)cc1OC`?
RecA intein inh: 7.1; YopH inh: -24; Mtb growth: 3%; Arbovirus inh: 4; Mtb betalactam: -1

How did COc1ccc(NC(=S)N2CCN(Cc3ccccc3)CC2)c(OC)c1 do in these assays?
RecA intein inh: -1.2; Mtb growth: -1%; Arbovirus inh: -1; Mtb betalactam: 4

What do the screens show for `CCCCn1c(SCC(=O)c2ccc3c(c2)NC(=O)CO3)nc2cc(S(N)(=O)=O)ccc21`?
RecA intein inh: 5.8; Mtb growth: -3%; Arbovirus inh: 1; Mtb betalactam: 2

Results for O=[N+]([O-])c1ccc(COc2cccc(CNc3ccc(F)cc3)c2)cc1 ?
RecA intein inh: 11; YopH inh: -23; Mtb growth: 17%; Arbovirus inh: -5; Mtb betalactam: -4

How did CC(=O)N(C)C(c1ccc(N(C)C)cc1)c1nnnn1-c1c(C)cccc1C (stereo not given) do in these assays?
RecA intein inh: -0.2; YopH inh: -19; Mtb growth: -6%; Arbovirus inh: -6; Mtb betalactam: -5

How did CCOC(=O)C(NCc1ccc2c(c1)OCO2)(NC(=O)CC)C(F)(F)F (stereo not given) do in these assays?
RecA intein inh: 0.9; YopH inh: -24; Mtb growth: -10%; Arbovirus inh: 6; Mtb betalactam: 0

What do the screens show for `COc1ccc(C2C(C(=O)Nc3ccc(F)cc3)=C(C)Nc3nc(CCCO)nn32)cc1` (stereo not given)?
RecA intein inh: 2.0; YopH inh: -18; Mtb growth: -10%; Arbovirus inh: 8; Mtb betalactam: -2; Arbovirus inh repeat: -3

How did Cc1cccc2cc(CN(Cc3cccs3)C(c3nnnn3C3CCCC3)C(C)C)c(=O)[nH]c12 (stereo not given) do in these assays?
YopH inh: 20; Mtb growth: 16%; Arbovirus inh: 0

What do the screens show for `CC(O)CCc1nc2ccc(C(=O)O)cc2[nH]1` (stereo not given)?
RecA intein inh: -0.7; YopH inh: -47; Arbovirus inh: 12; Mtb betalactam: 8

How did Cc1nnc(-c2cccc(Br)c2)c2cn(-c3ccccc3Cl)nc12 do in these assays?
RecA intein inh: 2.4; YopH inh: -41; Mtb growth: 17%; Arbovirus inh: -8; Mtb betalactam: 40

Results for C=CCn1c(=O)c2c(nc3n2CCCN3CCc2ccccc2)n(C)c1=O ?
RecA intein inh: -1.9; Mtb betalactam: 2

How did CCN1CCc2c(OCC(=O)N3CCCCC3)cccc2C1=O do in these assays?
RecA intein inh: -1.3; Mtb growth: 3%; Arbovirus inh: -5; Mtb betalactam: -7
